# PABP FP inh – blocks human PABP binding to poly(A) RNA; inhibition, % at 35 µM; 290,000 compounds, 1% hits; AID 2014; fluorescence polarization; P11940;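 active = 50% or more with normal probe brightness, or confirmed in later tests; inconclusive = above 50% with abnormal brightness, or retests that disagree; inactive = below 50% or failed in later tests; about a fifth of its hits are not listed in these tables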;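 also: calls also rest on retests at 20 µM and on dose response follow-up; controls were probe without protein and protein plus probe with vehicle; some compounds called inactive have numbers as strong as hits; many hits fall short of the cut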
# UUG fidelity – alters start codon recognition fidelity in yeast | S. cerevisiae UUG-firefly luciferase reporter, luminescence/redox ratio | activity score, % at 18.7 µM | 350,000 compounds, 0.13% hits;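 active = replicate mean at a twofold rise or more, about +100% in these data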;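 also: firefly luciferase made from a UUG start codon reports start codon fidelity; reporter light over untreated wells divided by growth signal over untreated wells; some hits fall short of that in this replicate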
# CSC inhib – blocks cancer stem cells; cancer stem cell-like cells viability, luminescence; inhibition, % at 7.5 µM; 300,000 compounds, 1.1% hits;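 active = mean at 75% or more and at least half the replicates too; inconclusive = mean and replicates disagree; tested in HMLE shEcad cells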;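 also: 0% = median of negative and 100% = median of positive control wells; the first replicate is given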
# HIV Env fusion – inhibitors of HIV Env-mediated cell fusion; HeLa-JRFL Env/CEM21 cell fusion, luciferase; inhibition, % at 12.3 µM; 360,000 compounds, 1.1% hits; AID 651610;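 active = mean replicate inhibition score of at least 50 and every replicate individually at or above 50; inconclusive = only one of the two criteria met; inactive = mean below 50 and not all replicates reaching 50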;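 also: 0% = plate neutral controls and 100% = maraviroc near 300 nM; one replicate is shown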
# eIF4H FP inh – inhibitors of RNA binding by human eIF4H; Q15056; eIF4H fluorescence polarization binding assay; 290,000 compounds, 0.94% hits; inhibition, % at 35 µM;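 active = 50% or more with normal probe brightness, or confirmed in later tests; inconclusive = above 50% with abnormal brightness, or retests that disagree; inactive = below 50% or failed in later tests; about a fifth of its hits are not listed in these tables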;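 also: calls also rest on retests at 20 µM and on dose response follow-up; 0% = protein and probe with vehicle and 100% = probe without protein; strong numbers were not always called active; many hits fall short of the cut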
# Rce1 inh – blocks yeast Ras-converting enzyme. yeast membranes, quenched prenylated peptide cleavage fluorescence. calls only. 290,000 compounds, 0.27% hits;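 active = fall in fluorescence gain of 50% or more versus controls, with final raw signal at or below 3038400; inconclusive = same 50% fall but final raw signal above 3038400; inactive = fall in fluorescence gain under 50%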;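 also: plate controls were neutral control wells for no effect and wells lacking membranes for full effect; tested at 10 µM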
# Target sequence (Q03530 whole entry, looked up): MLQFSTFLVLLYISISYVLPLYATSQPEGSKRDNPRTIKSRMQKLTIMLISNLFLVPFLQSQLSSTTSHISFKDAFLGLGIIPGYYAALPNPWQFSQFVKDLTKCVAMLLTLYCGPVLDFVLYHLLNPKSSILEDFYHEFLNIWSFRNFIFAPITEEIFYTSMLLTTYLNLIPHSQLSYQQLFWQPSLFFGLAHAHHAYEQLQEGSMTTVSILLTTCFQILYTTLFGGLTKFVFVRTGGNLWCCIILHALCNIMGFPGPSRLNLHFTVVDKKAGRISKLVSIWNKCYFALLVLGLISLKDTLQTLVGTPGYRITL
# MT1-MMP act inh – MT1-MMP (human) activation inhibition; HT1080 RFP-PRO-GFP cells, GFP/RFP ratio fluorescence, overnight; percent of plate control window, DMSO zero; GFP/RFP ratio change, % at 20 µM; 360,000 compounds, 0.061% hits; AID 651647;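 active = GFP/RFP ratio change of at least 30% with cell ATP level not reduced by more than half and red fluorescence within 50% of control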; also: strong numbers were not always called active
#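 system = RFP-PRO-GFP reporter HT1080 cells | dosing = 20 µM single dose, 1% DMSO | timing = overnight cell settling, then overnight compound exposure, 37 °C, 5% CO2 | read-out basis = GFP/RFP fluorescence ratio | controls = DMSO and RFP-L50D-GFP cell wells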
# eIF4H FP inh retest – recorded beside eIF4H FP inh, whose call it bears; inhibition, %; compound at 20 µM; confirmation average;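 mean of two retest wells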
# PABP FP inh retest – further read-out of PABP FP inh, marked with its call; inhibition, %; compound at 20 µM; confirmation repeats;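 mean of two retest wells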
# MT1-MMP act inh RFP – further read-out of MT1-MMP act inh, marked with its call; RFP signal change, %; measured here: RFP expression control read;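 0 = vehicle wells; hits needed this value within 50% of zero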
# * marks the source's active call; other numbers are inactive results; i = inactive; ? = inconclusive; / = not tested or not shown; & = joins results of further samples; [ ] = remark or other dose. Some of the compounds tested; count on the stated rates, not on these rows.
SMILES,PABP FP inh,UUG fidelity,CSC inhib,HIV Env fusion,eIF4H FP inh,Rce1 inh,MT1-MMP act inh,MT1-MMP act inh RFP,others
CN(C(=O)c1ccco1)c1ccccc1C(=O)O,-4,10,-7,-8,-10,/,1,6,
CC(C)C(c1nnnn1C(C)(C)C)N1CCC(Cc2ccccc2)CC1 (stereo not drawn),6,8,25,/,28,i,-20,-16,
COc1ccc(C(=O)CC(C#N)c2ccc3c(c2)OCO3)cc1OC (stereo not drawn),/,8,/,-3,/,/,-4,-8,
O=c1[nH]cc(S(=O)(=O)N2CCN(c3cccc(Cl)c3)CC2)c(=O)[nH]1,/,/,-5,-6,/,i,1,-3,
O=C(COC(=O)COc1ccccc1[N+](=O)[O-])Nc1cccc(Br)c1,-7,/,12,0,-2,i,0,5,
O=C1NC(=S)CN1c1ccccc1,4,/,-11,7,13,i,0,4,
CN1CCN(C(=O)CCC(=O)O)CC1,1,-13,-4,5,-1,i,-2,4,
Cc1c(C(=O)O)sc(S(=O)(=O)N2CCN(C(=O)Cc3ccc(F)cc3)CC2)c1C(=O)O,/,-20,-5,/,/,/,0,3,
CCC(C)N1CCN(S(=O)(=O)c2ccc(NC(C)=O)cc2)CC1 (stereo not drawn),11,/,-23,5,6,i,0,-9,
Cc1nc(C)c(C(=O)C2=C(O)C(=O)N(CCCn3ccnc3)C2c2ccccc2)s1 (stereo not drawn),2,/,/,/,3,i,-2,3,
Cc1nn(-c2cc(C(F)(F)F)ccn2)c(=O)o1,16,-17,-11,11,-9,/,3,3,
NS(=O)(=O)c1ccc(CCNC(=O)C2CCN(c3ncnc4c3nc3n4CCCCC3)CC2)cc1,-5,8,-8,-16,1,i,2,-2,
C=CCNc1ccccc1S(=O)(=O)NCc1ccccc1,/,-10,/,13,/,/,6,2,
O=C(Nc1cccc2cccc(NC(=O)c3ccco3)c12)c1ccco1,38,/,-13,/,84,i,3,5,eIF4H FP inh retest=2;PABP FP inh retest=7
O=S(=O)(Nc1nc2ccccc2s1)c1cc(F)ccc1F,10,1,1,-69,-2,i,-1,5,
Cc1ccc(Nc2cccccc2=O)cc1,9,1,2,-25,9,i,-1,-3,
CN(c1ccc(OCC(=O)NC2CCCC2)cc1)S(=O)(=O)c1cccs1,-16,-4,-3,7,2,i,5,5,
O=C(CSc1nnc(-c2ccccc2F)o1)OCc1ccccc1,6,-15,-21,/,5,i,0,5,
CC[C@@H]1[C@H]2CCCC(=O)N3CC[C@@H](C[C@@H]1OC(=O)NCc1ccccc1)[C@@H]23,2,-11,-11,-18,-3,i,0,1,
O=C(CN1CCSCC1)N/N=C/c1ccccc1F,10,/,/,/,-2,i,2,2,
COC1CCCN(C(=O)c2ccc3nc(Cc4cccc(Cl)c4)oc3c2)C1 (stereo not drawn),-8,2,-26,-9,-5,i,0,-5,
CCOc1ccc(C(=O)C2CCN(C(=O)c3ccc([N+](=O)[O-])cc3)CC2)cc1,-6,-4,-2,8,13,i,-7,-25,
COCC(C)NCc1cccc(C)c1 (stereo not drawn),2,-16,-1,/,-8,i,-4,-6,
O=C(c1ccccc1Cl)N(Cc1ccc(Br)cc1)N1C(=O)CCCC1=O,8,-10,-5,8,-8,i,2,4,
COc1ccc(CNC(=O)C2CC(c3cccc(OC)c3)=NO2)cc1 (stereo not drawn),3,7,54,-23,-2,i,2,3,
COC(=O)C(=O)Nc1nnc(COc2ccccc2)s1,0,-2,10,-13,-4,/,-6,0,
COc1ccc(CC(=O)Oc2ccc(C)cc2Br)cc1OC,-3,-13,/,61*,-1,i,10,5,
CN1CCc2c(sc3nc(SCC(N)=O)n(-c4ccc(Cl)cc4)c(=O)c23)C1,49,5,/,-2,?,i,-20,-4,
CCOC(=O)c1cccc(NC(=O)CSc2nc3cccnc3n2C)c1,0,-5,-2,62*,-7,/,4,-14,
O=C(CSc1n[nH]c(-c2cccs2)n1)NCc1ccc2c(c1)OCO2,-4,-19,-2,-99,-13,i,-1,3,
CCCN1C(=O)C(O)(C2CC(=O)CC(C)(C)O2)c2ccccc21 (stereo not drawn),0,-15,5,/,-2,i,2,10,
O=C(CNCC1CCCO1)N1CCCc2ccccc21 (stereo not drawn),10,-18,-13,/,-3,i,2,-1,
O=C(O)CN1C(=O)C2C3C=CC(C3)C2C1=O (stereo not drawn),10,-21,-8,4,10,i,4,7,
COC(=O)c1ccc(NC(=O)CSc2nc(C)cc(=O)[nH]2)cc1,4,-4,11,-121,-8,i,-2,1,
Cc1cc(C(=O)NC(Cc2c[nH]c3ccccc23)C(=O)O)c(C)o1 (stereo not drawn),15,-12,-6,-5,6,i,-6,2,
CN(c1nc2nonc2nc1NC1CC1)C1CCOC1 (stereo not drawn),3,-7,-12,-1,2,i,14,8,
COc1ccc(/C=N\NC(=O)c2cc(O)c(O)c(O)c2)cc1CN1CCN(c2ccc(F)cc2)CC1,6,-4,7,2,-4,i,-1,-1,
O=C(Nc1ccccc1-c1nnn(CC(=O)N2CCN(c3ccccc3)CC2)n1)c1cccs1,-2,/,-2,/,3,i,3,-5,
Cc1nn(C(=O)c2cccc([N+](=O)[O-])c2)c(C)c1Cl,7,-1,-12,-18,2,i,2,5,
CCOC(=O)C(NC(=O)c1ccccc1)(Nc1nnc(C)s1)C(F)(F)F (stereo not drawn),-12,-6,-14,-193,1,i,-1,1,
Cc1nc2ccccc2n1CC(=O)N/N=C\c1ccccn1,2,-28,-3,-7,1,i,1,1,
OCCCNCc1ccc(-c2ccccc2)cc1,2,-11,15,-10,-4,i,1,3,
Cc1cccc(NC(=S)N(CCN(C)C)C(C)c2cccnc2)c1 (stereo not drawn),0,/,-17,2,-2,i,9,10,
CC(C)Cc1nc(N2CCOCC2)c(C#N)c2c1COC(C)(C)C2,9,0,-17,/,-12,i,1,-6,
Oc1ccccc1C(=S)N1CCCCCC1,0,-4,7,-47,2,i,0,2,
O=C1C(=O)N(CCCN2CCOCC2)C(c2ccc([N+](=O)[O-])cc2)/C1=C(\O)c1ccc2c(c1)OCCO2 (stereo not drawn),-8,-30,-18,-3,-8,i,3,5,
COc1cccc(C(=O)NCc2ccc(-c3nc4ccccc4s3)cc2)c1,-4,/,6,/,-3,i,-5,-3,
COc1ccc(S(=O)(=O)Nc2cccc3c2O[C@H](CN(C)Cc2ccc(Oc4ccccc4)cc2)[C@@H](C)CN([C@H](C)CO)C3=O)cc1,/,10&26,8,7[16.7 µM],/,/,1,-13,

# Pulled by structure from the entries so far:
SMILES,PABP FP inh,UUG fidelity,CSC inhib,HIV Env fusion,eIF4H FP inh,Rce1 inh,MT1-MMP act inh,MT1-MMP act inh RFP,others
COc1ccc(/C=N\NC(=O)c2cc(O)c(O)c(O)c2)cc1CN1CCN(c2ccc(F)cc2)CC1,6,-4,7,2,-4,i,-1,-1,
O=C(Nc1ccccc1-c1nnn(CC(=O)N2CCN(c3ccccc3)CC2)n1)c1cccs1,-2,/,-2,/,3,i,3,-5,

# Next part
SMILES,PABP FP inh,UUG fidelity,CSC inhib,HIV Env fusion,eIF4H FP inh,Rce1 inh,MT1-MMP act inh,MT1-MMP act inh RFP,others
Cc1cc(C(=O)CN2C(=O)C(=O)N(Cc3ccccc3)C2=O)c(C)n1-c1ccccc1F,-2,/,60,-6,-6,i,-1,4,
CC(=O)Oc1ccc2cc(-c3nc4ccccc4n3C)c(=O)oc2c1,10,-21,18,/,20,/,-11,0,
O=[N+]([O-])c1cnc(Sc2ccncn2)s1,1,-30,107*,-267,-4,i,4,2,
COC(=O)c1ccc(-c2c(-c3ccccc3)ncc3cc(OC)c(OC)cc23)cc1,/,-5,41,23,/,/,-6,-2,
CCOC(=O)CN1N=C(/C=C/c2ccccc2)CCC1=O,/,4,-5,/,/,i,3,0,
CCc1c(C)sc(NC(=O)Cc2ccccc2OC)c1C(=O)N1CCOCC1,11,6,3,32,2,i,-2,2,
CCOC(=O)CC1=Nc2ccccc2NC(=O)C1,-5,4,-10,-63,6,i,-2,3,
Cc1ccccc1CN1CCN(Cc2ccc3cccc(F)c3n2)CC1CCO (stereo not drawn),-9,-9,5,8,1,i,-3,-2,
O=C(c1ccccc1)c1nc[nH]c1C(=O)Nc1ccccn1,-1,-19,/,/,-4,i,8,4,
COc1ccc(NC(=O)CSc2nnc(Cc3cccs3)n2-c2ccc(C)cc2)cc1,2,-26,-9,/,-5,/,-2,-2,
N[C@@H](Cc1ccc(O)cc1)c1nnc([C@H](CCC(=O)O)NC(=O)C2CCNCC2)o1,-9,-2,-7,1,-13,i,5,2,
CNC(=O)/C(C#N)=C1/SC(Cc2ccc(F)cc2)C(=O)N1c1ccccc1 (stereo not drawn),2,/,-2,12,5,i,1,2,
CCCCNC(=O)CCn1c(=O)c2ccccc2n(Cc2ccc(Cl)cc2)c1=O,2,/,2,/,-8,i,0,2,
CCc1c(C(=O)NNC(=O)Nc2ccc3c(c2)OCO3)csc1C,-4,-8,-14,-2,-10,i,-2,-3,
Cc1ccccc1NS(=O)(=O)c1ccc(OCC(=O)N2CCCCC2)cc1,0,-5,-4,/,10,i,6,2,
[N-]=[N+]=CC(=O)CCCN1C(=O)c2ccccc2C1=O,-5,-24,-1,-82,8,i,-1,-4,
Cc1cccc(C)c1NC(=O)CN1C(=O)CCSc2ccc(S(=O)(=O)N3CCCC3)cc21,-7,-16,-14,-2,-8,i,-1,2,
Cc1ccc(Cn2c(CCC(=O)O)nc3ncccc3c2=O)cc1,4,-13,9,-133,3,i,0,-1,
Cc1[nH]c2ccc3ncccc3c2c1C,-9,/,-5,-226,9,i,0,-1,
O=C(CN1CCN(c2ccccc2F)CC1)Nc1ccccc1F,-16,/,-10,/,-4,i,-3,0,
Cc1ccc(NC(=S)N2CCCN(Cc3ccc(F)cc3)C2)c(C)c1,2,-12,-3,12,3,i,4,10,
Cc1ccc(CNc2nc(C)nc3sc4c(c23)CCC4)cc1,-3,-17,9,74*,7,i,-12,-17,
CCCCN(C)CCC(=O)Nc1ccc(OC)cc1OC,-8,-18,-17,-36,8,/,0,3,
Cc1cc(C)cc(N(C(=O)c2csnn2)C(C(=O)NC2CCCC2)c2cccnc2)c1 (stereo not drawn),-11,-2,-2,21,-14,i,-3,1,
N#CCc1nc2n(n1)Cc1ccccc1-2,-4,0,-11,/,-5,i,19,0,
Cc1cc(C(F)(F)F)nc(CCNCc2c(C(=O)N3CCCC3)nc3ccccn23)n1,4,-26,-17,-1,-5,i,-2,1,
CCCCNC(=O)c1ccc2c(=O)n(CCCOCC)c(=S)[nH]c2c1,-8,-13,-5,-75,-6,i,-1,3,
CCn1nc(C)c(CNC(=O)CCc2nnc(-c3ccc(C(C)=O)s3)o2)c1C,-6,1,-13,1,-14,i,3,4,
COc1ccc(CNC(=O)COC(=O)CCOc2ccc(C)cc2)cc1,/,-2,-10,-4,/,i,4,-1,
Cc1cc2oc(=O)cc(CN(C)Cc3ccccc3Cl)c2cc1C,1,/,17,11,-4,i,-3,-5,
Nn1c(SCC(=O)NC2CCCCCC2)nnc1C(F)(F)F,/,-12,1,-6,/,/,4,6,
CCOC(=O)c1c(C)[nH]c(C)c1C(=O)COC(=O)c1cccc(S(=O)(=O)N(CC)CC)c1,-7,5,11,/,-7,i,1,-8,
Cc1cc(NC(=O)Nc2ccc(Cl)cc2)n(-c2ccccc2)n1,3,-6,20,3,-3,i,3,-2,
CCCCC(c1nnnn1CS(=O)(=O)c1ccc(C)cc1)N1CCN(C)CC1 (stereo not drawn),32,/,-7,6,4,i,-2,1,

# Screening data from PubChem BioAssay.
